Source: PubChem (Center for Chemical Genomics, University of Michigan)
HIV TAR-Tat: TAR RNA-Tat peptide displacers, HIV-1, primary screen, biochemical, FRET, FAM/TAMRA-labeled Tat; HIV-1 TAR RNA, Tat peptide displacement FRET; active compounds read high; 0.6% of 100,000 active; z-score (no concentration beside the values);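 further: score is relative to mean and SD of negative controls; some compounds called inactive have numbers as strong as hits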
CDC25B CDK2 inh: primary biochemical HTRF screen for blockers of M-phase inducer phosphatase 2 binding to CDK2/cyclin A; 0.72% of 94,000 active; P30305+P24941; AID 1259370, 2018; HTRF CDC25B-CDK2/CyclinA binding, anti-His/anti-Flag; active compounds read high; z-score (no concentration beside the values);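 further: score is relative to mean and SD of negative controls; strong numbers were not always called active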
* marks the source's active call; other numbers are inactive results.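 How the source made its calls: active means z-score from 3 up in half or more of its runs; inactive means the rest.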 Not a hit list; about 0.89% have a hit in one of these screens.

`COc1cc(NC(=S)N2CCN(c3ccccc3OC)CC2)c(OC)cc1Cl` gave CDC25B CDK2 inh -3.4.
CCOc1cccc(C(c2c[nH]c3ccccc23)c2c[nH]c3ccccc23)c1OC was read as HIV TAR-Tat -0.65 and CDC25B CDK2 inh 1.2.
`CC(=O)N1CCOc2cc(S(=O)(=O)N3CCC4(CC3)Nc3ccccc3-n3cccc34)c(C)cc21` gave HIV TAR-Tat -1.5.
`Brc1ccc(CSc2ccc(-c3cccnc3)nn2)cc1` gave HIV TAR-Tat 0.89.
CCc1ccc2nc(NC3=NCN(CCCOC)CN3)nc(C)c2c1 was read as HIV TAR-Tat -0.02 and CDC25B CDK2 inh 2.1.
CNC(=O)NC1CCS(=O)(=O)C1 (stereo not drawn) was read as CDC25B CDK2 inh -2.5.
`CC1(C)CC(=O)C2=C(C1)NC(=O)CC2c1ccc(F)c(Br)c1` (stereo not drawn) gave HIV TAR-Tat 0.63 and CDC25B CDK2 inh -1.5.
For Cc1ccc(S(=O)(=O)Nc2cc3c(cc2N2CCOCC2)n(C)c(=O)n3C)c(C)c1 the results were HIV TAR-Tat -0.32 and CDC25B CDK2 inh -1.5.
`Cc1ccc(CNS(=O)(=O)c2cc(-c3csc(C)n3)ccc2C)cc1` gave HIV TAR-Tat 1.2.
For CCOC(=O)c1c(C)oc2ncnc(Nc3ccc(F)cc3Cl)c12 the results were HIV TAR-Tat 0.12.
`Cn1cnc2c1c(=O)n(CCn1c(=O)c3c(ncn3C)n(C)c1=O)c(=O)n2C` gave CDC25B CDK2 inh 0.23.
`Cc1cc([N+](=O)[O-])nn1CCCC(=O)Nc1sc2c(c1C#N)CCCC2` gave CDC25B CDK2 inh 0.33.
`COc1ccc(NC(=O)CSc2nc3cc(OC)c(OC)cc3c3nc(C)nn23)cc1Cl` gave CDC25B CDK2 inh -0.39.
Cc1ccc2nc(Nc3ccccc3C)c3nncn3c2c1 was read as HIV TAR-Tat -0.95 and CDC25B CDK2 inh -1.6.
Screening CCCN1CCN(C(=O)C2CCN(c3ccc(-c4cccs4)nn3)CC2)CC1 returned HIV TAR-Tat 0.88.
COc1cccc(N2CCN(Cc3nc(N)nc(Nc4ccc(Cl)cc4)n3)CC2)c1 was read as HIV TAR-Tat 2.5.
`CCc1nn2c(=O)cc(COC(=O)C(CC)c3ccccc3)nc2s1` (stereo not drawn) gave HIV TAR-Tat 1.6.
For CCOC(=O)c1sc(=S)n(CCc2ccccc2)c1N the results were HIV TAR-Tat 0.63.
`COc1cccc(C(=O)CC2(O)C(=O)N(CCc3ccccc3)c3ccc(Br)cc32)c1` (stereo not drawn) gave HIV TAR-Tat 0.51 and CDC25B CDK2 inh 1.2.
CC(=O)N1CC(C)Oc2ccc(S(=O)(=O)N3CC(C)CC(C)C3)cc21 (stereo not drawn) was read as HIV TAR-Tat 1.2.
CC(=O)Nc1c2n(c3ccc(F)cc13)CC(C)(C(=O)NC1CCCC1)N(Cc1cccs1)C2=O (stereo not drawn) was read as HIV TAR-Tat 1.6.
For CCC1Oc2ccc(Cl)cc2N(CC(=O)N2CCCN(c3cc(=O)n(C)c(=O)n3C)CC2)C1=O (stereo not drawn) the results were HIV TAR-Tat 1.1.
`O=C(CSc1nncn2c1cc1sccc12)Nc1ccc(Cl)cc1F` gave HIV TAR-Tat 1.
`O=C(c1coc(C2CC2)n1)N1CCN(Cc2noc(-c3ccccc3)n2)CC1` gave HIV TAR-Tat 0.53.
Screening CSC(N)=NCCC[C@H](N)C(=O)O returned CDC25B CDK2 inh -0.04.
`O=S(=O)(Nc1ccc(F)cc1)c1ccc(-n2cccn2)cc1` gave HIV TAR-Tat 1.
For COCCNC(=O)c1ccc(NC2=NC3CS(=O)(=O)CC3S2)cc1 (stereo not drawn) the results were HIV TAR-Tat 0.91.
Screening O=C(Cn1ncc2ccsc2c1=O)NCCN1CCCC1 returned HIV TAR-Tat -0.35 and CDC25B CDK2 inh -1.2.
CC1(C)C(=O)Nc2ccc(S(=O)(=O)N3CCc4ccccc4C3)cc21 was read as HIV TAR-Tat 0.16.
`O=C(c1ccc(CN2C(=O)CSc3ncccc32)cc1)N1CCc2ccccc21` gave HIV TAR-Tat 2.4.
COc1cc(-c2cc(N)n(S(=O)(=O)c3ccccc3)n2)cc(OC)c1OC was read as CDC25B CDK2 inh -1.8.
`Cc1ccccc1OCCSc1nc2ccccc2n1CCO` gave HIV TAR-Tat 0.93 and CDC25B CDK2 inh -0.7.
O=C1CC(c2cccc(Oc3ccccc3)c2)C2=C(CC(c3ccc(F)cc3)CC2=O)N1 (stereo not drawn) was read as HIV TAR-Tat 3.1 and CDC25B CDK2 inh -1.3.
CCCc1nc(-n2cccc2)sc1C(=O)O was read as HIV TAR-Tat 1.3 and CDC25B CDK2 inh -2.7.
CC(C)c1ccc(N(C(=O)C2CCCC2)C2C=CS(=O)(=O)C2)cc1 (stereo not drawn) was read as HIV TAR-Tat -1.4 and CDC25B CDK2 inh -1.1.
Screening CCCCCOc1cccc(C2c3c(oc4ccccc4c3=O)C(=O)N2c2nccs2)c1 (stereo not drawn) returned HIV TAR-Tat -0.7 and CDC25B CDK2 inh -1.1.
N#CC1=C(N)OC2=C(C(=O)CCC2)C12C(=O)Nc1ccccc12 (stereo not drawn) was read as CDC25B CDK2 inh -1.9.
COCCCN1C(=O)C(=O)/C(=C(/O)c2ccccc2)C1c1ccc(OC)c(OC)c1 (stereo not drawn) was read as HIV TAR-Tat 0.69 and CDC25B CDK2 inh -0.61.
CCOc1ccc(C2c3c(oc4ccccc4c3=O)C(=O)N2c2nncs2)cc1 (stereo not drawn) was read as HIV TAR-Tat 0.06 and CDC25B CDK2 inh -1.5.
`COC(=O)c1sc(NC(=O)CSc2nnc3ccc4ccccc4n23)nc1C` gave HIV TAR-Tat 1.4 and CDC25B CDK2 inh -1.7.
`Cc1cc(NC(=O)c2cccc(-n3cnnc3)n2)no1` gave HIV TAR-Tat 1.6.
Screening Cc1cc(=O)n(CC(=O)N2CCC(C)CC2)c2c1c(C)nn2C returned HIV TAR-Tat 1.
CC(=O)Nc1ccc(S(=O)(=O)Oc2ccccc2N2CCCCC2)cc1Cl was read as CDC25B CDK2 inh -2.2.
Cc1ccc(NS(=O)(=O)c2c(C)nc3sc(C)c(C)n3c2=O)cc1F was read as HIV TAR-Tat -0.86.
For CCOC(=O)Cn1c2ccccc2c2nc3ccccc3nc21 the results were HIV TAR-Tat 1.3 and CDC25B CDK2 inh -2.7.
COc1ccc(N(Cc2cc(CN3CCOCC3)cs2)S(=O)(=O)c2ccc(F)cc2F)cc1 was read as HIV TAR-Tat -1.5.
`O[C@@]1(c2ccccc2)C2C3CC4C5C3C1C5C(F)(F)C42` (stereo partly drawn) gave CDC25B CDK2 inh -1.6.
Screening Cc1cc(NC(=O)CSc2nc(-c3ccco3)cc(C(F)(F)F)n2)n(-c2ccccc2)n1 returned HIV TAR-Tat -4.2 and CDC25B CDK2 inh 1.4.
`COc1ccc(C2/C(=C(\O)c3ccc(F)cc3)C(=O)C(=O)N2CCCN(C)C)cc1OC` (stereo not drawn) gave HIV TAR-Tat -0.63 and CDC25B CDK2 inh -2.
For CC(C)S(=O)(=O)c1cnc(N2CCCCC2)nc1N the results were CDC25B CDK2 inh -1.5.
For CCCNC(=O)CCc1nnc2ccc(N3CCCC3)nn12 the results were HIV TAR-Tat 0.21.
Screening Cc1cccc(N2C(=O)CC(n3ccnc3)C2=O)c1C (stereo not drawn) returned HIV TAR-Tat -1.3 and CDC25B CDK2 inh -1.2.
For Cn1c(=O)n(Cc2ccccc2)c(=O)c2c1nc(N1CCCC1)n2Cc1ccccc1 the results were CDC25B CDK2 inh -1.3.
Screening c1nc(N2CCNCC2)c2sc3nc(N4CCOCC4)c4c(c3c2n1)CCCC4 returned CDC25B CDK2 inh 0.82.
`Cc1ccc(C(=O)NC2CCCCC2C)cc1NC1=NC2CS(=O)(=O)CC2S1` (stereo not drawn) gave HIV TAR-Tat 1.9 and CDC25B CDK2 inh -1.6.
Cc1ccc2oc(SCC(=O)NC3CCCc4ccccc43)nc2n1 (stereo not drawn) was read as HIV TAR-Tat 2.2.
For COc1ccc2nc(SCC(=O)Nc3ccc(OC)c(OC)c3)[nH]c2c1 the results were CDC25B CDK2 inh -1.2.
Screening O=C1CN2C(=N1)N(Cc1ccccc1)c1ccccc12 returned CDC25B CDK2 inh -0.74.
`O=C(O)CSCC(=O)Nc1cccc2c1CCCC2` gave CDC25B CDK2 inh 0.12.
CCCCc1nn2c(=O)cc(CSc3nnc(-c4ccc(OC)cc4)n3C)nc2s1 was read as HIV TAR-Tat -0.04.
`CCOC(=O)C1=NNC(C(=O)c2ccccc2)C1c1cccc(Br)c1` (stereo not drawn) gave HIV TAR-Tat 0.63 and CDC25B CDK2 inh -0.62.
`Cc1ccc2c(C)c(C(=O)N(Cc3sccc3C)C3CCS(=O)(=O)C3)oc2c1` (stereo not drawn) gave HIV TAR-Tat -0.22 and CDC25B CDK2 inh -0.22.
`O=S(=O)(c1ccc(Cl)cc1)N1CCCC(c2nc(-c3ccccc3)no2)C1` (stereo not drawn) gave HIV TAR-Tat 2.2.
O=S(=O)(Nc1cccnc1)c1ccc(Oc2ccccc2)cc1 was read as HIV TAR-Tat -0.35 and CDC25B CDK2 inh -0.32.
O=C1c2oc3ccccc3c(=O)c2C(c2cccc(Oc3ccccc3)c2)N1c1ccccn1 (stereo not drawn) was read as HIV TAR-Tat 2.3 and CDC25B CDK2 inh -1.2.
`O=c1c2ccccc2nc2c3ccccc3c(NCc3cccnc3)nn12` gave CDC25B CDK2 inh -0.31.
Cc1cccc(C(=O)OCc2cc(=O)n3nc(C(C)C)sc3n2)c1 was read as HIV TAR-Tat 0.79.
`CCc1nnc(SCc2nc(-c3ccc(C)cc3)oc2C)c2cc3occc3n12` gave HIV TAR-Tat 1.5.
Screening CCN1CCN(CCCNC(=O)C2CCCN(c3nnc(-n4cccc4)s3)C2)CC1 (stereo not drawn) returned HIV TAR-Tat 1.3 and CDC25B CDK2 inh -0.13.
Screening COc1ccc(OCCn2c(=O)oc3ccccc32)cc1 returned HIV TAR-Tat 2.4 and CDC25B CDK2 inh -1.9.
For FC(F)(F)c1cc(-c2ccc(-n3cccc3)cc2)n[nH]1 the results were CDC25B CDK2 inh -2.9.
CCOc1ccc(N(Cc2cc3ccc(C)cc3[nH]c2=O)S(C)(=O)=O)cc1 was read as HIV TAR-Tat 0.83 and CDC25B CDK2 inh -3.
Screening CCCCCCCC1CC/C(=C/c2ccc(C#N)cc2)C1=O (stereo not drawn) returned CDC25B CDK2 inh -1.2.
`CC1(C)C(=O)C=C[C@@]2(C)C1CC(=O)[C@]1(C)C2CC[C@@]2(C)[C@H](c3ccoc3)OC(=O)[C@H]3O[C@]321` (stereo partly drawn) gave HIV TAR-Tat 1.1.
`CC1CCN(C(=O)C(C)CS(=O)(=O)c2ccc3c(c2)NC(=O)C(C)S3)CC1` (stereo not drawn) gave HIV TAR-Tat -1.1.
For O=C(C1CCN(c2nn3cc(-c4ccc(F)cc4)nc3s2)CC1)N1CCOCC1 the results were HIV TAR-Tat 0.69.
COc1cc(OC)c2ccc(=O)oc2c1 was read as HIV TAR-Tat 0.79.
`O=C(Cn1cc(C(=O)C2CCCCC2)c2ccccc21)NC1CCCC1` gave HIV TAR-Tat 0.36 and CDC25B CDK2 inh -1.9.
For Cc1cccc(OCc2nn3c(Cn4nnc5ccccc54)nnc3s2)c1 the results were HIV TAR-Tat 1.9 and CDC25B CDK2 inh -1.2.
Screening CCSc1nnc(NC(=O)CSc2nc3c(c(=O)n2C)SCC3)s1 returned HIV TAR-Tat 2.1 and CDC25B CDK2 inh -0.48.

Grouped by structure: the compounds so far containing bromine (four)
`Brc1ccc(CSc2ccc(-c3cccnc3)nn2)cc1` gave HIV TAR-Tat 0.89.
`CC1(C)CC(=O)C2=C(C1)NC(=O)CC2c1ccc(F)c(Br)c1` (stereo not drawn) gave HIV TAR-Tat 0.63 and CDC25B CDK2 inh -1.5.
`COc1cccc(C(=O)CC2(O)C(=O)N(CCc3ccccc3)c3ccc(Br)cc32)c1` (stereo not drawn) gave HIV TAR-Tat 0.51 and CDC25B CDK2 inh 1.2.
`CCOC(=O)C1=NNC(C(=O)c2ccccc2)C1c1cccc(Br)c1` (stereo not drawn) gave HIV TAR-Tat 0.63 and CDC25B CDK2 inh -0.62.

Arranged by molar mass (descending): 3 of the compounds above
For Cc1cccc(OCc2nn3c(Cn4nnc5ccccc54)nnc3s2)c1 the results were HIV TAR-Tat 1.9 and CDC25B CDK2 inh -1.2.
Screening CCCCCCCC1CC/C(=C/c2ccc(C#N)cc2)C1=O (stereo not drawn) returned CDC25B CDK2 inh -1.2.
COc1cc(OC)c2ccc(=O)oc2c1 was read as HIV TAR-Tat 0.79.

Returning to the listing; the 3 compounds before the break are reprinted first.
`O=C(Cn1cc(C(=O)C2CCCCC2)c2ccccc21)NC1CCCC1` gave HIV TAR-Tat 0.36 and CDC25B CDK2 inh -1.9.
For Cc1cccc(OCc2nn3c(Cn4nnc5ccccc54)nnc3s2)c1 the results were HIV TAR-Tat 1.9 and CDC25B CDK2 inh -1.2.
Screening CCSc1nnc(NC(=O)CSc2nc3c(c(=O)n2C)SCC3)s1 returned HIV TAR-Tat 2.1 and CDC25B CDK2 inh -0.48.
Cc1cc(C)n2c(SCCN3C(=O)c4ccccc4C3=O)nnc2n1 was read as CDC25B CDK2 inh -1.2.
Screening CCCCN1CCCC1CNC(=O)c1cc(C#N)c2ccccc2c1OC (stereo not drawn) returned HIV TAR-Tat 1.6.
Cc1ccc(-c2n[nH]c(S(=O)(=O)Cc3cc(=O)n4nc(C)sc4n3)n2)cc1 was read as HIV TAR-Tat 1.8.
`CCOC(=O)c1nnsc1NC(=O)N1CCOCC1` gave HIV TAR-Tat 0.69.
